# Compound activity (PubChem)
# Vaccinia mCherry – qHTS for Stage-Specific Inhibitors of Vaccinia Orthopoxvirus: mCherry Reporter Primary qHTS. Vaccinia virus mCherry reporter infection, fluorescence; about a quarter of the inactives have no number. 0.63% of 310,000 active. Potency, µM (top dose mostly 36.5 µM), inactives show at the top dose activity change, negative = inhibition, hits mostly inhibitors; active = well fitted inhibition curve with a large enough effect; inconclusive = small, poorly fitted or top-dose-only effect; inactive = no such curve, though single readings can be large or run the other way; tested in A549 cells; note: nearly all actives have a fitted effect of over 35% in size; inactives centre near -10
# VACV Venus inh – qHTS for Stage-Specific Inhibitors of Vaccinia Orthopoxvirus: Venus Reporter Primary qHTS. Potency, µM (highest dose often 36.5 µM), without a hit: at the top dose activity change, negative = inhibition, hits mostly inhibitors. 0.46% of 330,000 active. AID 720580, 2013. Vaccinia virus Venus reporter expression, fluorescence; active means well fitted inhibition curve with a large enough effect; inconclusive means small, poorly fitted or top-dose-only effect; inactive means no such curve, though single readings can be large or run the other way; tested in A549 cells; note: nearly all actives have a fitted effect of over 30% in size; inactives centre near -10
# Numbers without * were called inactive; i = inactive; ? = inconclusive; nt = not tested or not shown; & = joins results of further samples; [ ] = another dose, or the depositor's remark. % is set by controls: 0 for no effect and ±100 for the full control effect; potency is the fitted concentration of half-maximal effect.
SMILES,Vaccinia mCherry,VACV Venus inh
CCCCN(CC)CCNC(=O)c1cc2cc3ccc(Cl)cc3nc2o1,?,4%
Cc1ccc(-c2cc(C(=O)N(Cc3ccc(C(C)(C)C)cc3)Cc3ccco3)no2)cc1,i,-1%
CC(C)NC(=O)c1cnn2c1NC(c1cccs1)CC2C(F)(F)F (configuration not stated),-22%,-19%
COc1ccc(S(=O)(=O)N2CCC3(CC2)CC(=O)c2ccccc2O3)cc1OC,i,-16%
CCc1ccc(N(CC)C(=O)c2cc3c(=O)oc4ccc(C)cc4c3s2)cc1,-1%,1%
Cc1nc2ccc(C(=O)N3c4ccccc4N=C(c4ccc5c(c4)OCO5)C3C(=O)NCc3ccccc3)cc2[nH]1 (configuration not stated),-2%,-8%
CCOC(=O)c1cc(NC(=O)CN2CCCC2)cc(C(=O)OCC)c1,i,-5%
CCCCn1nnnc1C1(C)CCC(=O)N1Cc1ccc(OC)c(OC)c1 (configuration not stated),-23%,?
COc1ccc2nc(-c3ccc(CN4CCC(n5c(=O)[nH]c6ccccc65)CC4)cc3)c(-c3ccccc3)nc2c1,?,?
NCCC(=O)N1c2ccccc2Sc2ccccc21,?,-9%
Cc1ccsc1S(=O)(=O)N1CCC(CO)(CC2CCCCO2)CC1 (configuration not stated),-13%,-9%
CCCCC1=CC2=CC(=O)C(C)(OC(=O)CC)C(=O)C2=CN1CCc1ccc(Br)cc1 (configuration not stated),-26%,-11%
Cc1onc(-c2ccccc2)c1C(=O)OCC(=O)NCc1ccc(F)cc1,-13%,-2%
O=S(=O)(Nc1ccccn1)c1ccc(C2CCCCC2)cc1,-23%,-3%
C/C(=N\Nc1ccc2nncn2n1)c1ccccn1,?,?
O=C(CSc1nnc(Cn2nnc3ccccc32)o1)Nc1ccc(Cl)cc1,-25%,-19%
S=C(NCCCc1cnc[nH]1)NCCCN(Cc1ccc(Cl)cc1)c1ncc(Br)cn1,-25%,?
CCC(=O)Nc1cccc(C2=NOC3(C2)C[C@@H](C(N)=O)N(C(=O)c2ccccc2C(=O)c2ccccc2)C3)c1 (some centres not stated),0%,-13%
CCC(=O)N/N=C(\C)CC(=O)Nc1cc(Cl)ccc1C,-4%,-7%
COCCn1c(N)c(N(Cc2ccccc2)C(=O)CSCC(=O)Nc2ccc(C)cc2)c(=O)[nH]c1=O,-13%,-13%

# An excerpt from above in order of number of heavy atoms, high to low:
SMILES,Vaccinia mCherry,VACV Venus inh
COc1ccc2nc(-c3ccc(CN4CCC(n5c(=O)[nH]c6ccccc65)CC4)cc3)c(-c3ccccc3)nc2c1,?,?
Cc1ccc(-c2cc(C(=O)N(Cc3ccc(C(C)(C)C)cc3)Cc3ccco3)no2)cc1,i,-1%
COc1ccc(S(=O)(=O)N2CCC3(CC2)CC(=O)c2ccccc2O3)cc1OC,i,-16%

# New compounds follow
SMILES,Vaccinia mCherry,VACV Venus inh
CCOC(=O)c1ccccc1NC(=O)CSc1ncc2c(n1)-c1ccccc1N(CC)S2(=O)=O,-8%,2%
Cc1ccc(OCCCCN2CCc3ccccc3C2)c(C)c1,?,-20%
Cc1cnc(SCC2CCCO2)nc1C1CCCN(Cc2cc3c(cc2Cl)OCO3)C1 (configuration not stated),-26%,-20%
CC(C)CC(=O)Nc1cccc(C(=O)Nc2ccccc2C(=O)O)c1,-10%,-8%
Cc1nnc(SCC(=O)O)o1,-2%,-6%
Cc1ccc(C(C)NC(=O)CSc2ccc(S(=O)(=O)N3CCOCC3)cn2)cc1C (configuration not stated),-22%,-29%
CCOC(=O)c1sc(N2N=C(C)C(N=Nc3cccc(C)c3)C2=O)nc1C (configuration not stated),-3%,-5%
COc1ccc2[nH]c(=O)c(CN(CC3CCCO3)C(=S)Nc3ccccc3)cc2c1 (configuration not stated),-3%,-17%
CCOC(=O)C1=C(C)NC(=S)N(C(C)=O)C1c1ccccc1 (configuration not stated),-29%,-23%
CC1(C)SC(=S)N(c2ccccc2)C1/[N+]([O-])=C/c1cccc([N+](=O)[O-])c1 (configuration not stated),-14%,?
C=CCNC(=O)CSc1nc2sc3c(c2c(=O)n1CCC)CCC3,-11%,-5%
CC(C)C1Cc2c(sc3[nH]c(=S)n(Cc4ccccc4)c(=O)c23)CO1 (configuration not stated),-15%,0%
Cn1c(=O)c2nc3ccc(NC(=O)C(F)(F)F)cc3nc2n(C)c1=O,-5%,18%
Cc1ccc(OCC(=O)Nc2ccc(F)cc2)c([N+](=O)[O-])n1,i,-11%
CC(C)Oc1ccc(C(=O)Nc2nc3c(s2)CC(C(C)(C)C)CC3)cc1 (configuration not stated),i,-18%
CCOc1ccc(-c2nc(CSCC(=O)NCc3ccc(Cl)cc3)c(C)o2)cc1,?,?
CCCn1cc2c(c1-c1cccc(C)c1)c(=O)n(C)c(=O)n2C,nt,-4%
COc1cc(-c2cc(C)c3c(OC)ccc(OC)c3n2)cc2c1OCCN(Cc1cn(C)nc1C)C2,12%,22%
CC(C)(C)n1nc2c(c1NC(=O)c1ccccc1C(F)(F)F)CS(=O)(=O)C2,-19%,-3%
COc1ccc(CC(=O)N/N=C(\C)c2ccccn2)cc1,?,?
CCc1nc2ccc(C(=O)NC(C)(C)C)cn2c1N(CC)Cc1cccc(Br)c1,15%,-4%
Cc1ccccc1CS(=O)(=O)Cc1ccc(C(=O)NCCc2ccc(Cl)cc2)o1,-1%,-13%
COc1c(O)ccc(/C=C(\C#N)c2nc3ccccc3[nH]2)c1[N+](=O)[O-],i,1%
O=C(NCCc1cccs1)C1CC1,-13%,-9%
O=C(COC(=O)CNS(=O)(=O)c1cccc(Br)c1)NC(=O)Nc1ccc2c(c1)OCCO2,-22%,-12%
COc1ccc(Cn2c(C)nc3c(c(=O)c4ccccc4n3C)c2=O)cc1,-9%,-2%
O=C(CCn1cccn1)Nc1cccc(C(F)(F)F)c1,-8%,-7%
COc1ccc(NS(=O)(=O)c2ccc(Cl)s2)cn1,i,-11%
Cc1ccc(NC(=O)Cn2nnc(-c3ccccc3)n2)c(C)c1,5%,1%
Cc1cc(OC(=O)Nc2ccccc2)ccc1Cl,i,-3%
COCCNC(=O)c1ccc2c(c1)N(Cc1cccc(Cl)c1)C(=O)c1ccccc1S2=O (configuration not stated),-7%,-8%
O=c1[nH]c(=S)[nH]c(O)c1CN1CCCCC1,-2%,-15%
CC1(C)Oc2ccc3ccc(=O)oc3c2/C(=C/Nc2ccc(O)cc2)C1=O,-30%,?
CCOCC(O)CNc1ccccc1 (configuration not stated),i,-7%
CCN(C(=O)COC(=O)c1cc(-c2ccccc2)nn1-c1ccccc1)C1CCS(=O)(=O)C1 (configuration not stated),i,-19%
C[C@@]12CCC=C[C@H]1[C@H](c1ccc3ccccc3c1/C=C/c1ccccc1)N(Cc1ccccc1)C2=O,-29%,?
O=C(NC1CCCC1)C(c1ccncc1)N(Cc1ccco1)C(=O)c1ccc(-c2ccccc2)[nH]1 (configuration not stated),?,-27%
C=CC[C@@H](CC(=O)N[C@H](CO)Cc1ccccc1)C(=O)N[C@H](COC(=O)[C@@H](CC=C)CC(=O)OC(C)(C)C)Cc1c[nH]c2ccccc12,22µM*,13µM*
c1ccc2c(N3CCNCC3)nsc2c1,1%,-3%
C=CCOC(=O)C1=C[C@H](c2ccccc2)[C@@H](CCCO)[C@H](OCC)O1,i,-4%

# Molecules shown so far containing a thiophene ring, fused or not, in the order listed:
SMILES,Vaccinia mCherry,VACV Venus inh
CC(C)NC(=O)c1cnn2c1NC(c1cccs1)CC2C(F)(F)F (configuration not stated),-22%,-19%
CCc1ccc(N(CC)C(=O)c2cc3c(=O)oc4ccc(C)cc4c3s2)cc1,-1%,1%
Cc1ccsc1S(=O)(=O)N1CCC(CO)(CC2CCCCO2)CC1 (configuration not stated),-13%,-9%
C=CCNC(=O)CSc1nc2sc3c(c2c(=O)n1CCC)CCC3,-11%,-5%
CC(C)C1Cc2c(sc3[nH]c(=S)n(Cc4ccccc4)c(=O)c23)CO1 (configuration not stated),-15%,0%
O=C(NCCc1cccs1)C1CC1,-13%,-9%
COc1ccc(NS(=O)(=O)c2ccc(Cl)s2)cn1,i,-11%

# (cont.)
SMILES,Vaccinia mCherry,VACV Venus inh
CCOC(=O)C1CCN(C(=O)Cc2c(C(=O)O)n(C)c3ccccc23)CC1,-7%,-2%
CSc1ccccc1NC(=O)CN(C)CC(=O)c1[nH]c(C)c(C(C)=O)c1C,-17%,-2%
COc1ccc(N2C(=O)CSC23C(=O)N(Cc2ccccc2F)c2ccccc23)cc1Cl (configuration not stated),-10%,2%
O=c1[nH]c2ccccc2n1C1=CCNCC1,-12%,-12%
CC(=O)NCC(=O)OCC(=O)N1c2ccccc2Sc2ccccc21,?,-7%
CC(=O)Nc1ccc(S(=O)(=O)NC2=C(N3CCN(Cc4ccccc4)CC3)C(=O)c3ccccc3C2=O)cc1,-29%&-16%,-12%&-20%
COc1ccc2[nH]c(=O)c(CN(Cc3nnnn3CCc3ccccc3)CC3CCCO3)cc2c1 (configuration not stated),nt,-15%
COc1cc(/C=C/c2cccc[n+]2C)ccc1OCC(=O)Nc1ccccc1C,-14%,3%
CSc1ccccc1OCc1cc(C(=O)N2CCc3[nH]cnc3C2c2ccccn2)no1 (configuration not stated),-6%,-25%
Cc1ccc(-c2nc3cccnc3s2)cc1NS(=O)(=O)c1ccc2c(c1)OCCO2,3%,4%

# An excerpt of these results, as labelled records.
Molecule: CC(=O)NCC(=O)OCC(=O)N1c2ccccc2Sc2ccccc21
  Vaccinia mCherry: ?; VACV Venus inh: -7%
Molecule: CC(=O)Nc1ccc(S(=O)(=O)NC2=C(N3CCN(Cc4ccccc4)CC3)C(=O)c3ccccc3C2=O)cc1
  Vaccinia mCherry: -29%&-16%; VACV Venus inh: -12%&-20%

# Continued:
SMILES,Vaccinia mCherry,VACV Venus inh
O=C(OCC(=O)c1ccc[nH]1)c1ccc(Cl)nc1,-12%,5%
Oc1ccc(Cl)cc1C1C=C(c2ccc3c(c2)OCO3)NC(c2ccc(Cl)cc2)N1 (configuration not stated),-25%,-14%
CC(C)[C@H](NC(=O)c1ccco1)C(=O)OCC(=O)N1CCc2ccccc21,-21%,-11%
COc1ccc(NC(=O)CCC(=O)Nc2nnc(C3CCCCC3)s2)cc1,i,-5%
CCOC(=O)C1=C(N)Oc2cc(C)oc(=O)c2C12C(=O)N1c3c(cc(OC)cc32)C(C)=CC1(C)C (configuration not stated),-9%,-11%
CC(=O)NC(CC(=O)Nc1nc(C)cs1)c1ccccc1 (configuration not stated),i,-1%
CCNC(=O)COc1ccc(C=O)cc1OC,-15%,-11%
CNC(=S)N/N=C/c1ccc(-c2cc([N+](=O)[O-])ccc2Cl)o1,-7%,-17%
O=C(CCc1nc(-c2ccc(Cl)cc2)no1)OCc1ccc(Br)cc1,-8%,2%
COc1ccc(C(=O)NCC(=O)OCC(=O)c2c[nH]c3ccccc23)cc1,0%,0%
COc1cccc(Cn2cc(C(=O)c3ccccc3)c(=O)c3cc4c(cc32)OCO4)c1,-9%,-7%
Nc1nc(CSCCO)nc(Nc2ccccc2)n1,-11%,-9%
COc1ccc(O)c(C(=O)c2cnn(-c3ccccc3)c2)c1,?,8%
Cc1cc(C)c(C)c(S(=O)(=O)N2CCNC(=O)C2)c1C,i,-12%
CC1CCCCC1NC1=NCCS1 (configuration not stated),i,-11%
CCOCCCNC(=O)C1CCCN(S(=O)(=O)CC)C1 (configuration not stated),nt,-17%
CC[C@]12c3[nH]c4cc(-c5ccco5)ccc4c3CCN1C(=O)[C@@H](CC(=O)NCC13CC4CC(CC(C4)C1)C3)C[C@@H]2C(=O)N1CCN(C(=O)c2ccco2)CC1,7.1µM*,?
N/C(=N\c1nc2ccccc2o1)NC(=O)c1ccccc1NC(=O)c1ccccc1,-7%,-23%
COc1ccc(-n2nc3c(N4CCCC(C(=O)NCCc5ccccc5C)C4)nnc(C)c3c2C)cc1 (configuration not stated),-27%,-8%
Cc1cc(O)c(C(C)C)cc1N=Cc1ccc(N(C)C)cc1,-1%,-6%
COc1ccccc1C(=O)N/C(=C\c1ccc(Br)cc1)C(=O)N1CCCC1,i[7.34 µM],-10%[7.34 µM]
CO/N=C\C(=N\Nc1ccc(OC)cc1)C(=O)c1ccccc1,nt,?
CC1(c2nnc(-c3ccccc3)o2)CC(c2ccncc2)=NO1 (configuration not stated),i,-9%
COc1ccc(-c2[nH][nH]c(=O)c2NC(=O)c2ccc([N+](=O)[O-])cc2)cc1,i,3%
O=C(O)CN1C(c2ccccc2O)Nc2ccc(Br)cc2C1c1ccccc1 (configuration not stated),-5%,-1%
COc1ccc(C(=O)Nc2cccc(-c3cc4ccccc4oc3=O)c2)cc1[N+](=O)[O-],?,?
CCN(CC)C(=O)C1=C(C)N(Cc2ccc(OC)cc2)C(=O)C(CC(=O)NCCCCc2ccccc2)C1 (configuration not stated),-21%,?
Cc1nonc1C(=O)N/N=C/c1ccccc1,7%,-2%
CC(=O)c1cccc(-c2ccnc3c2CC(C(=O)Nc2ccc(Cl)c(C(F)(F)F)c2)O3)c1 (configuration not stated),-20%,-16%
C/C=C\C=C\C(=O)N1CC2(CC(c3cccc(NC(=O)/C(C)=C\C)c3)=NO2)C[C@H]1C(N)=O (some centres not stated),-8%,-13%
O=C1CN=C(c2ccc[nH]2)c2cc(Cl)ccc2N1,i,-10%
Cc1cc2nc(C3CCCCC3)c(Cc3cccc(Cl)c3)n2c(C)c1Br,36%[activator],12%
CSc1nc(-c2ccccc2)nn1C(=O)c1ccccc1,0%,-9%
O=C1C=CC(=O)c2c(O)cccc21,-21%,-15%
O=C(CC1Oc2ccccc2NC1=O)NC1CCCC1 (configuration not stated),13%,11%
CCn1c(CNC(=O)c2cc(OC)c(OC)c(OC)c2)cc2ccccc21,i,-6%
CC(C)Oc1ccc(CNC(=O)c2ccccc2NC(=O)c2nsc3ccccc23)cc1,i,-28%
